# Hsc70 ATP site – Hsc70 inhibitors, probe displacement, primary screen, biochemical, fluorescence polarization (AID 568); Hsc70 fluorescence polarization, probe displacement; higher % means a stronger effect; strong numbers were not always called active; displacement, % at 20 µM; hits with a dose series show IC50 in µM; 83,000 tested, under 10 active;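 active means displacement above 50% without optical interference and an IC50 on retest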;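 further: ATPase domain with a fluorescein-tagged ATP probe; 0% = vehicle and 100% = excess ADP; read after one hour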
# MT1-MMP promoter – inhibitors of MT1-MMP promoter transcription, cell-based, luciferase reporter, luminescence (AID 618); calls from a first round at 10 µM; hits with a dose series show EC50 in µM; MT1-MMP promoter luciferase reporter cells, luminescence; hit rate 0.62% among 87,000;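 active means over half of the reporter light lost at 10 µM or EC50 under 50 µM; inactive means the rest and hits that failed the dose series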;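 further: actives suppress MT1-MMP promoter-driven transcription so potencies describe inhibitors; HT1080 fibrosarcoma cells; overnight exposure; toxic or luciferase-blocking compounds were not removed from the actives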
# WNV protease inh – blocks West Nile virus NS2B-NS3 protease activity. P06935. WNV NS2B-NS3 protease, fluorogenic substrate Ex360/Em465; hits give low values. z-score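 (tested at a level between 10 and 100 µM)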. hit rate 0.18% among 65,000;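 active means z-score at -3 or under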;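 further: score is relative to mean and spread of the compound wells of a plate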
# Target sequence (P06935 1371-1501 limits assumed): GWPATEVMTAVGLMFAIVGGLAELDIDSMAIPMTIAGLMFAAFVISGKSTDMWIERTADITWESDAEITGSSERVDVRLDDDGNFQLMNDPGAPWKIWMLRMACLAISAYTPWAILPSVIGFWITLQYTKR
# Target sequence (P06935 1502-1679 limits assumed): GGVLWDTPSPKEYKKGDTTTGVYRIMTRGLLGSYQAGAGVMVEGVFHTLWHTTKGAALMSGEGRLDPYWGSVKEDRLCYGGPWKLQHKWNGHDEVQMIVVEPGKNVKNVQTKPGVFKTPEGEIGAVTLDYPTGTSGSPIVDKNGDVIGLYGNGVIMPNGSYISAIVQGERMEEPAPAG
# Numbers without * were called inactive; i = inactive; x = not tested or not shown.
compound	Hsc70 ATP site	MT1-MMP promoter	WNV protease inh
COc1ccc(C2C(C(=O)N3CCCCC3)CCC(=O)N2c2cc(OC)c(OC)c(OC)c2)cc1 (stereo unspecified)	2.4%	i	x
Cc1csc(NC(=O)CSc2nnc(C)n2Cc2ccco2)n1	1.7%	i	-0.52
CN(C)c1ccc(-c2noc(C3CCN(S(=O)(=O)c4cccc(Cl)c4)CC3)n2)cc1	-3.8%	i	0.32
Cc1nn(CC(=O)N2CCN(Cc3ccccc3)CC2)c(=O)c2ccccc12	3.1%	i	1.19
CCOC(=O)CC(=O)CSc1nc2c(cc1C#N)CCCCCC2	-19.7%	i	-0.03
CCOC(=O)COc1ccc(S(=O)(=O)Nc2ccc3c(c2)OCO3)cc1	6.2%	i	0.31
O=C(CN1CCN(c2ncc(C(F)(F)F)cc2Cl)CC1)Nc1ccc2c(c1)OCO2	-6.6%	i	-0.26
CCC(C)(C(=O)NC1CCCCC1)N(Cc1ccco1)C(=O)c1ccc2c(c1)OCO2 (stereo unspecified)	-1.6%	i	-0.27
Cc1ccc2nc3c(cc(C(=O)NCc4cccnc4)c(=N)n3C(C)C)c(=O)n2c1	25.1%	i	2.31
CCc1ccc(N/C(SC)=C(/C#N)C(N)=O)cc1	-0.9%	i	0.31
Nc1c(C(=O)NC2CCCCC2)nsc1C(=O)OCC(=O)NC1CCCCC1	1.9%	i	-1.46
COc1ccc(-c2noc(COc3ccc4c(c3)OCO4)n2)cc1OC	4.2%	i	-0.79
CC1CCN(S(=O)(=O)c2ccc3[nH]c(=O)cc(C(=O)O)c3c2)CC1	-5.9%	i	0.96
Cc1coc2c(C)c3oc(=O)c4c(c3cc12)CCC4	3.0%	i	0.76
CN1C(=O)C(O)(C2OC(C)(C)CCC2=O)c2ccccc21 (stereo unspecified)	-5.6%	i	x
C#CCN(C)CC/C=C1\c2ccccc2CSc2ccccc21	-2.2%	i	x
O=C(CCCN1C(=O)CCC1=O)Nc1ccc(Cl)c(C(F)(F)F)c1	1.4%	i	1.5
Cc1ccc(-n2nnnc2-c2cnoc2-c2cccc(F)c2)cc1	4.9%	i	x
O=C(NC1CCCCC1)C(Cc1ccccc1)NS(=O)(=O)c1cccs1 (stereo unspecified)	1.6%	i	x
O=C(O)c1ccccc1NCN1C(=O)C2CC=C(Cl)CC2C1=O (stereo unspecified)	-4.6%	i	-0.54
CCOC(=O)C1CCN(C(=O)NC23CC4CC(CC(C4)C2)C3)CC1	-5.1%	i	-1.14
CCOC(=O)CSc1nnc(SCCN2C(=O)c3ccccc3C2=O)s1	-3.2%	i	x
C/C(Cl)=C\Cn1c(Nc2ccccc2)nc2c1c(=O)n(C)c(=O)n2C	2.9%	i	0.13
CC1(C)Cc2cccc(OCC(=O)Nc3ccccc3N3CCOCC3)c2O1	-5.8%	i	0.51
Cc1ccc(N2CC(C(=O)Nc3nnc(C)s3)CC2=O)cc1 (stereo unspecified)	3.9%	i	0.59
Cc1ccc(N2C(=O)c3n[nH]c(C)c3C2c2cccnc2)cc1 (stereo unspecified)	-3.5%	i	0.15
COC(=O)c1c(NC(=O)CSc2nc(-c3ccco3)cc(C(F)(F)F)n2)sc2c1CCCC2	-1.5%	i	x
CC(C)CCn1c(CN2CCN(C(=O)c3ccco3)CC2)nc2c1c(=O)n(C)c(=O)n2C	-0.6%	i	-1.19
CCCCSCc1[nH]c(=O)[nH]c1C(=O)CCCCC(=O)OCC	-3.1%	i	-0.93
COCc1nnc(SCC(=O)NC(C)c2ccccc2)n1-c1ccccc1 (stereo unspecified)	-2.4%	i	0.25

# Sorted by molecular weight (lowest first): some entries from above
compound	Hsc70 ATP site	MT1-MMP promoter	WNV protease inh
Nc1c(C(=O)NC2CCCCC2)nsc1C(=O)OCC(=O)NC1CCCCC1	1.9%	i	-1.46
CCOC(=O)CSc1nnc(SCCN2C(=O)c3ccccc3C2=O)s1	-3.2%	i	x
COC(=O)c1c(NC(=O)CSc2nc(-c3ccco3)cc(C(F)(F)F)n2)sc2c1CCCC2	-1.5%	i	x

# Continued:
compound	Hsc70 ATP site	MT1-MMP promoter	WNV protease inh
Cc1cc(-c2nnc3sc(-c4ccc(Cl)cc4Cl)nn23)n[nH]1	-2.0%	i	-0.89
CN1CCN(C(=O)c2ccccc2-c2ccccc2C(=O)O)CC1	5.4%	i	-0.55
CSc1nc(N2CCOCC2)c2c3c(sc2n1)CCC3	-4.4%	i	0.00176
Nc1nc(CSCCO)nc(Nc2ccc(F)cc2)n1	-2.4%	i	x
C=CCNC(=O)c1ccc(Cl)cc1Cl	0.0%	i	-0.16
CCC(C)NC(=O)CSc1nc2ccccc2c(=O)n1CCCC(=O)NCC1CCCO1 (stereo unspecified)	0.1%	i	1.71
COc1ccc(-c2nc(CS(=O)CC(=O)NCCCN3CCCC3)c(C)o2)cc1OC (stereo unspecified)	5.6%	i	0.11
CC1(C)CC(=O)C2=C(C1)c1c(ccc3ccccc13)NC2c1ccc(Br)o1 (stereo unspecified)	-0.4%	i	x
O=C(Cn1nc(C(F)(F)F)c2c1CCC2)N1CCN(c2ccccc2)CC1	2.0%	i	0.4
Cc1nc(SC(C)C)[nH]c(=O)c1Cc1ccccc1	2.6%	i	-0.53
COCCNC(=O)COC(=O)c1[nH]c(C)c(C(C)=O)c1C	2.7%	i	x
CCn1cc(C(=O)NCCCOC)c(=O)c2cc(S(=O)(=O)N(C)C3CCCCC3)ccc21	-5.1%	i	-0.98
Clc1ccc(Nc2nc(-c3cccs3)cs2)nc1	-3.9%	i	-0.99
COc1cc(-c2nc3cnccn3c2Nc2ccc3c(c2)OCCO3)ccc1O	1.0%	i	-1.25
COc1ccccc1N1CCN(C(=O)CCCC2=NS(=O)(=O)c3ccccc3N2)CC1	1.0%	i	-0.78
OCCN(CC(O)Cn1ccc2ccccc21)CC(O)Cn1ccc2ccccc21 (stereo unspecified)	7.1%	i	-0.59
Cc1ccc(/C(O)=C2\C(=O)C(=O)N(CC(C)O)C2c2cccc(F)c2)cc1 (stereo unspecified)	4.2%	i	2.05
N#Cc1c(C(F)(F)F)cc(-c2ccco2)nc1SCc1ccncc1	-7.1%	i	-0.75
COc1ccccc1-c1nc(-c2cccc(C)c2)no1	5.0%	i	-0.15
CC(C)CCNC(=O)C1CCCCN1S(=O)(=O)c1ccc(F)cc1 (stereo unspecified)	1.6%	i	x
CCOC(=O)c1cc(S(=O)(=O)NC2CCN(C(=O)OCC)CC2)cn1C	4.3%	i	0.19
Cc1ccc(O)c(Sc2cc(C)ccc2O)c1	-2.1%	i	-0.33
CCN(CCN(C)C)C(=O)Cn1ncc2c1-c1cc(C)ccc1OC2	7.1%	i	-0.05
Cn1c(=O)c(C(=O)Nc2ncccn2)c(O)c2ccccc21	2.9%	i	0.49
COCCN(Cc1cc2cccc(C)c2n2nnnc12)C(=O)C(F)(F)F	0.9%	i	-0.58
COc1ccc(C(=O)Nc2ccc(Cl)c(Cl)c2)c(OC)n1	-3.1%	i	-0.17
Cn1c(SCC(=O)NCc2ccco2)nnc1-c1ccccc1	3.5%	i	x
CCc1cccc(CC)c1N(COC)C(=O)Cn1c(C(C)O)nc2ccccc21 (stereo unspecified)	8.2%	i	-0.15
O=C(NCCCN1CCCC1=O)c1cccnc1	-4.5%	i	1.41
Cc1cccc(C)c1NC(=O)C1CCCN(CCCc2ccccc2)C1 (stereo unspecified)	4.5%	i	x

# Next compounds follow:
compound	Hsc70 ATP site	MT1-MMP promoter	WNV protease inh
O=C(O)CSc1nnc(Cc2ccccc2)n1Cc1ccccc1	3.1%	i	0.41
CS(=O)(=O)N(CC(=O)N1CCC(C(N)=O)CC1)c1ccc(Cl)c(C(F)(F)F)c1	4.2%	i	x
Cn1c(=O)cc(OCCCC(=O)Nc2cccnc2)c2ccccc21	3.7%	i	1.14
Cc1ccc(NC(=O)c2cc(S(=O)(=O)N3CCC4(CC3)OCCO4)ccc2F)cc1	-1.8%	i	0.52
COCCCNC(=O)c1ccccc1SC	0.5%	i	0.47
Cc1cc(N2CCC(C(=O)Nc3ccc(F)cc3)CC2)nc(-c2ccccc2)n1	-5.8%	i	-0.49
Cc1nn(-c2ccccc2)c2sc(C(=O)NC3CC3)cc12	-3.4%	i	x
Clc1cccc2sc(-c3nnc(-c4ccccc4)o3)c(Cl)c12	-6.1%	i	x
CC1Cc2ccccc2N1S(=O)(=O)c1cccc(C(=O)c2nccn2C)c1 (stereo unspecified)	1.0%	i	0.05
CCc1c(O)nc(SCC(=O)Nc2ccccc2)n(C(C)CC)c1=O (stereo unspecified)	-5.0%	i	x
Cc1ccc(N2CC(C(=O)N3CCc4ccccc4C3)CC2=O)cc1 (stereo unspecified)	-1.6%	i	-1.15
CCOC(=O)C1CCN(C(c2cccs2)c2sc3nc(C)nn3c2O)CC1 (stereo unspecified)	3.2%	i	-0.57
Cc1nnc(SCc2cccs2)[nH]c1=O	1.8%	i	-2.88
CCOC(=O)c1[nH]c(C)c(/C(O)=C2\C(=O)C(=O)N(CCN3CCOCC3)C2c2cccs2)c1C (stereo unspecified)	-0.4%	i	x
Cc1c(C#N)c2ncn(CCCN(C)C)c(=O)c2n1-c1ccccc1	-5.8%	i	0.12
CCN1C(=O)c2cccc3c(S(=O)(=O)Nc4ncccc4C)ccc1c23	-4.6%	i	-1.73
COc1cc(OC)cc(-c2nnc(Nc3nc4c(F)cccc4s3)o2)c1	-2.0%	i	1.09
CCOC(=O)N1CCC(NC(=O)CCC(=O)N2CC(C)Oc3ccc(Cl)cc32)CC1 (stereo unspecified)	3.9%	i	-0.47
CC1CCCCN1c1nc(-c2ccncc2)nc2ccccc12 (stereo unspecified)	2.7%	i	1.1
Cn1c(COc2ccccc2)nnc1SCC(=O)Nc1ccc(N2CCOCC2)c(Cl)c1	8.0%	i	-0.16
COc1cc2c(cc1OC)CN(Cc1cccs1)CC2	-1.1%	i	0.06
COc1ccc(N2C(=O)/C(=C/c3ccc([N+](=O)[O-])cc3)C=C2c2ccccc2)cc1	-1.2%	i	x
CCOCC(=O)Nc1c(C(=O)Nc2ccc(OC)cc2OC)oc2ccccc12	-3.5%	i	-1.06
O=C(NCc1ccc2c(c1)OCO2)c1ccc(N2C(=O)C3CCCCC3C2=O)cc1 (stereo unspecified)	-2.1%	i	x
CC1(C)CC(NC(=O)CC2CCCCC2)CC(C)(C)N1	-7.7%	i	-0.22
Cc1ccc(C)c(S(=O)(=O)N2CCN(C(=O)Cn3c(C(F)(F)F)nc4ccccc43)CC2)c1	-0.2%	i	x
Cc1cc(N2CCN(C)CC2)nc2ccc(NC(=O)c3ccc(Br)o3)cc12	-2.9%	i	-0.34
CC1CC(C)CN(C(=O)c2cc(-c3ccccn3)nc3ccccc23)C1 (stereo unspecified)	-0.3%	i	x
CC(C)C[C@H](NC(=O)Nc1ccccc1F)C(=O)O	-5.9%	i	x
Cc1ccc(-n2c(SCC(=O)NCc3cccs3)nnc2-c2ccoc2C)cc1	-2.9%	i	1.28

# An excerpt of these results, with two lines to a compound:
# Below each compound – Hsc70 ATP site, MT1-MMP promoter, WNV protease inh
CCOC(=O)CSc1nnc(SCCN2C(=O)c3ccccc3C2=O)s1
  -3.2%, i, x
COc1ccc(C(=O)Nc2ccc(Cl)c(Cl)c2)c(OC)n1
  -3.1%, i, -0.17

# Later entries.
compound	Hsc70 ATP site	MT1-MMP promoter	WNV protease inh
COC(=O)Cn1cnc2c(nnn2Cc2ccc(Cl)cc2)c1=O	-2.6%	i	0.02
O=C(CN(Cc1ccco1)S(=O)(=O)c1cccs1)Nc1ccccc1C(F)(F)F	2.9%	i	-0.93
O=C1CCCCC(=O)c2ccccc2N1	-4.2%	i	x
COCCNC(=O)CN(c1cccc(OC)c1)S(=O)(=O)c1ccc(C)cc1	-4.6%	i	0.75
Cc1cc(C(=O)Nc2ccccc2C(F)(F)F)no1	3.8%	i	-0.91
O=C(O)CCCC(=O)Nc1ccccc1C(=O)O	-0.1%	i	-0.13
O=c1[nH]c2cc3c(cc2cc1C(c1nnnn1CC1CCCO1)N1CCCCCC1)OCO3 (stereo unspecified)	-4.7%	i	-0.23
CCSc1ccccc1C(=O)NCc1ccc(S(N)(=O)=O)cc1	-3.0%	i	-0.52
CCCCN1c2cc(C)c(O)cc2C(C(=O)OCC)C1C (stereo unspecified)	7.8%	i	1.48
COc1ccc(C2=NCC(CSc3nnnn3C)S2)cc1 (stereo unspecified)	6.9%	i	1.23
C=CCn1c(SCC(=O)Nc2ccc3c(c2)OCCO3)nnc1-c1ccccn1	-3.5%	i	-0.81
O=C(CCc1nc(-c2ccccc2F)no1)Nc1ccc(Oc2ccccc2)cc1	-0.9%	i	0.78
CC(=O)c1cc(C(c2csc(C(C)=O)c2)c2csc(C(C)=O)c2)cs1	-0.8%	i	x
CC(CCc1ccccc1)NC(=O)CN1CCOc2ccccc21 (stereo unspecified)	0.5%	i	-0.61
COc1ccccc1NC(=O)C1CCCCN1S(=O)(=O)c1ccc(F)cc1 (stereo unspecified)	1.8%	i	1.16
O=C(CSc1nnc(-c2ccccc2)o1)NCC1CCCCC1	-0.8%	i	x
CCOC(=O)C1=C(C)Nc2nc(SCc3cccnc3)nn2C1c1ccc(OC)cc1 (stereo unspecified)	2.6%	i	1.17
COc1ccc(S(=O)(=O)c2ccc(O)cc2)cc1	-3.3%	i	x

# Compound activity (PubChem BioAssay)
